D2 agonist: human D2 receptor agonism in beta-arrestin assay; activation, % (test concentration not listed); hit rate 0.084% among 360,000; DiscoveRx PathHunter D2 beta-arrestin, luminescence, 90 min; 100% = 57 uM dopamine signal; in the data active = activation above about 40%; inconclusive = about 15% to 40%; inactive = below about 15%; note: compound concentration not given in the record; the text of the record calls up to 30% inactive
Target sequence (P14416 whole entry, looked up): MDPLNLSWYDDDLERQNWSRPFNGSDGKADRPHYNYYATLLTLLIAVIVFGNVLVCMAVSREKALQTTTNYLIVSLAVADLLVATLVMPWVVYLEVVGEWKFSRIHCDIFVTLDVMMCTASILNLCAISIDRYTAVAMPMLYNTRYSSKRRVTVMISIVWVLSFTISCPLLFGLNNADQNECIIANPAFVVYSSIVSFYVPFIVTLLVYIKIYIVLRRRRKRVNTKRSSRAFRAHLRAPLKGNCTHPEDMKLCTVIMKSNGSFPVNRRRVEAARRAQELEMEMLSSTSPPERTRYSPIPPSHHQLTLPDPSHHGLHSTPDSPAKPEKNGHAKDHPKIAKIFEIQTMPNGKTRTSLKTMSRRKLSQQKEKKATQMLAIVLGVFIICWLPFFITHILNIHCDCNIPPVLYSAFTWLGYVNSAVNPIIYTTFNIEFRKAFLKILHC
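Agonist mode: compounds alone added to overnight-plated D2 PathHunter cells for 90 min at 37 C, with 57 uM final dopamine (EC100) defining full response. Beta-arrestin recruitment detected by chemiluminescent reagent, read after 1 h at ambient temperature.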
ClpP mod: qHTS Assay for Activators of ClpP; Potency, µM (top dose mostly 57.5 µM), inactives show at the top dose activity change, negative = active; hit rate 1.9% among 340,000; purified B. subtilis ClpP, FRET peptide cleavage, 20 min; active = well fitted falling curve with a large enough effect; inconclusive = small, poorly fitted or top-dose-only effect; inactive = no such curve, though single readings can be large or run the other way; note: potency is the fitted concentration of half-maximal effect; the source files actives as falling curves though it sought activators and does not explain the sign; nearly all actives have a fitted effect of over 65% in size; many hits overshoot -100%
Target sequence (P80244 whole entry, looked up): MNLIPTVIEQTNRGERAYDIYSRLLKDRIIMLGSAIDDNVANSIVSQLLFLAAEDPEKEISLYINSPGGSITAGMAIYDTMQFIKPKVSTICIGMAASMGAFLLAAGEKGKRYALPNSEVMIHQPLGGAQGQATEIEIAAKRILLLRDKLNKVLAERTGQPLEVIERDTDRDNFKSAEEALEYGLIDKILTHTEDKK
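ClpP 10 microg/mL final, pH 8 Tris/KCl buffer with BSA, glycerol, Tween-20; compound pinned in; FRET-FV substrate; RT 20 min; Ex320/Em430; ΔFRET vs ADEP 5.8 microM, DMSO, no enzyme.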
gsp ag: activates gsp, the McCune-Albright syndrome mutation; hit rate 0.13% among 340,000; gsp mutant cells, cAMP HTRF, 30 min; control for the full effect not named in the record; Potency, µM (top dose mostly 76.9 µM), without a hit: at the top dose activation (cAMP increase), most hits filed as activators; active = well fitted activation curve with a large enough effect; inconclusive = small, poorly fitted or top-dose-only effect, or another doubt; inactive = no such curve, though single readings can be large or run the other way; cell line not stated here;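 note: phosphodiesterase inhibitor Ro 20-1724 added with compounds to block cAMP breakdown; potency is the fitted concentration of half-maximal effect; nearly all actives have a fitted effect of over 60% in size; about a fifth of the inactives were tested at one dose only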
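Cells in DMEM/10% FBS with G418 were pretreated with compounds in DMSO plus […] (300 uM stock) for 30 min at 37C. cAMP was measured by HTRF (cAMP-d2 plus anti-cAMP antibody-K) after 30 min at room temperature.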
PINK1 expr mod: changes PINK1 expression | AID 624263 | Potency, µM (highest dose often 76.6 µM), for inactives: at the highest dose activation (PINK1 increase), most hits filed as activators | hit rate 0.2% among 410,000 | PINK1 immunofluorescence, high-content cytometry, 24 h; active = well fitted activation curve with a large enough effect; inconclusive = small, poorly fitted or top-dose-only effect; inactive = flat fitted curve, though single readings scatter; cell line not stated here;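 note: potency is the fitted concentration of half-maximal effect; % of control where 0% means no effect; nearly all actives have a fitted effect of over 65% in size; a mitochondrial uncoupler was the plate control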
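Measures PINK1 amount and localization on or inside mitochondria by immunofluorescence. Stable cells get compounds at 5 concentrations for 24 hours before fixation and staining; CCCP controls included.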
Sfp inh: blocks B. subtilis Sfp PPTase activity. Biochemical Sfp PPTase activity, qHTS. Potency, µM, inactives show max response, negative = inhibition, most hits filed as inhibitors. hit rate 3.5% among 310,000; active = well fitted inhibition curve with a large enough effect; inconclusive = small, poorly fitted or top-dose-only effect, or another doubt; inactive = no such curve, though single readings can be large or run the other way;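 note: the enzyme is Sfp with the accession as filed and its product quenches rhodamine fluorescence; potency is the fitted concentration of half-maximal effect; 0% = enzyme reaction without inhibitor and -100% = no enzyme wells; top concentration of the series not given in the record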
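Sfp 15 nM + cpd, 15 min RT; start w/ rhodamine-CoA 5 uM, BHQ-2-YbbR 12.5 uM (final); 50 mM Hepes pH 7.6, 10 mM MgCl2, 0.01% NP-40, 0.01% BSA; read 525/598 nm at 0 and 30 min.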
gsp antag: antagonists of gsp mutant (McCune-Albright syndrome); gsp-mutant cells, cAMP HTRF, 30 min; control for the full effect not named in the record; Potency, µM (series often up to 76.9 µM), for inactives: at the top dose activity change, negative = inhibition, hits mostly inhibitors; hit rate 0.4% among 340,000; AID 624288; active = falling curve of any shape with a large fitted effect; inconclusive = falling curve, mostly with a smaller effect; inactive = flat or rising curve; cell line not stated here;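 note: intracellular cAMP measured with PDE inhibitor Ro 20-1724 present during compound exposure; potency is the fitted concentration of half-maximal effect; % is set by controls: 0 for no effect and ±100 for the full control effect; nearly all actives have a fitted effect of over 65% in size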
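HTRF cAMP read-out (cAMP-d2 plus anti-cAMP antibody-K in lysis buffer, 30 min RT). Before lysis, cells are exposed to compounds with […] for 30 min at 37C in DPBS containing Ca/Mg, BSA and Tween 20.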
Menin MLL FP FL: menin-MLL binding inhibition, fluorescein peptide; AID 1766; Fluorescence polarization, fluorescein-MLL peptide displacement from menin; FP activity change, % at 61.4 µM; 290,000 tested, under 10 active; inconclusive = falling polarisation curve, or a change in total fluorescence; inactive = total fluorescence flat and polarisation flat or rising; no compound was filed as active; the % refers to the polarisation; negative = inhibition;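 note: % of control where 0% means no effect; inhibitors lower the polarisation; unlabelled MLL peptide was the positive control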
Starred values were filed as active, the others as inactive; ? = inconclusive; · = not tested or not shown; & = joins results of further samples; [ ] = remark or other dose. Rows were taken by chance; any-hit rate near 5.1%.

SMILES	D2 agonist	ClpP mod	gsp ag	PINK1 expr mod	Sfp inh	gsp antag	Menin MLL FP FL
O=C(NCc1ccccc1Br)c1cccc2c1C(=O)c1ccc(N3CCC(Cc4ccccc4)CC3)cc1S2(=O)=O	-6.5	-0.2%	-6%	-0.7%	·	0%	·
N#Cc1nc(COc2ccccc2F)oc1N1CCCCCC1	-0.9	-0.6%	-36%[inhibitor]	-0.1%	31%	-16%	0.4
CCCc1nc(NCc2ccc3c(c2)OCO3)c2nnn(Cc3ccccc3Cl)c2n1	-3.5	-3.2%	24%	18%	4%	3%	-0.2
O=C(/C=C1\SC(=O)N(CC(=O)Nc2ccc(Cl)cc2)C1=O)Nc1ccc(F)cc1	-0.5	-0.6%	7%	6.7%	-17%	8%	-0.1
O=C(CSc1nnc(Cn2c(=O)sc3ccccc32)n1-c1ccccc1)N1CCOCC1	-0.7	-0.2%	-22%	-1.3%[38.3 µM]	56µM*	-26%	2.1
O=C1N=C2SCCN2/C1=C\c1c(Cl)cccc1Cl	-5.8	0.7%	-17%	0.6%	-2%	?	3.9
O=C(COC(=O)CSc1ccc(F)cc1)NCC1CCCCC1	-1.3	1.6%	-105%[inhibitor]	-2.3%	9%	-5%	-0.1
CON/C=C(\C=Nc1ccc(Cl)cc1Cl)c1ncc(C(F)(F)F)cc1Cl	-2.0	0.0%	4%	1.9%	9%	2%	1.1
CN(C)C(=O)c1cc2cc([N+](=O)[O-])ccc2s1	-3.1	2.2%	-27%	2.7%	-2%	-6%	-1.9
COC(=O)C(C(=O)OC)c1ncccc1[N+](=O)[O-]	3.9	·	?	0.0%	12%	8%	5.0
O=C(Nc1cccc(C(F)(F)F)c1)c1cc2c(=O)c3ccccc3oc2nc1C(F)(F)F	-1.5	2.2%	0%	?	-3%	-1%	9.4
CC(=O)NCc1ccc(S(=O)(=O)N/N=C/c2ccc(Br)cc2)cc1	-7.8	·	1%[15.4 µM]	2.0%	8%	-1%	5.4
COc1cc(C2C(C(=O)c3ccc(C)o3)=C(O)C(=O)N2Cc2cccnc2)ccc1O (configuration not stated)	-3.6&0.9	-0.2%	0%	-0.4%	-8%&-14%	10%	13&6.7
CCOC(=O)CSc1nnnn1-c1cc(OC)c(Cl)cc1OC	-1.4	-1.2%	12%	0.6%	11%	11%	1.4
Cc1ccc(Nc2[nH]c(=O)c3ccccc3c2C(=O)c2ccccc2)cc1	-1.0	-2.6%	?	0.4%	·	3%	·
COc1ccc(C=C(C(=O)O)c2ccc(OC)cc2)cc1	1.9	1.1%	10%[15.4 µM]	-0.1%	·	-12%	·
CCO[C@@H]1OC(C(=O)NCc2nc3ccccc3[nH]2)=C[C@H](c2ccccc2)[C@H]1CCCO	4.5	-2.9%	·	0.2%	10%	-6%	-1.6
O=C1CCCN1Cc1ccccc1	-6.3	1.8%	·	1.3%	0%	-5%	-1.0
O=C1COc2cc(O)ccc21	2.6	·	-15%	5.0%	·	10%	·
Cc1ccc(OCC(=O)NCCNC(=O)COc2ccc(C)cc2)cc1	2.3	·	-16%[15.4 µM]	1.0%	5%	-10%	3.1
O=C(Nc1cccc(/C=C/c2ccccn2)c1)c1cc(Cl)ccn1	-1.7	·	-2%[15.4 µM]	9.1%	-13%	-2%	-3.4
CCOC(=O)c1c(C)oc2c1c(C=NCCC(=O)O)c(O)c1ccccc12	1.0	·	4%[15.4 µM]	-0.6%	-7%	-14%	?
CC(=O)c1sc(NC(=O)CSCc2c(C)noc2C)nc1-c1ccccc1	0.3	?	13%	1.0%	·	8%	·
O=C(NCc1ccc(F)cc1)C(=O)NCC1OCCN1S(=O)(=O)c1cccs1 (configuration not stated)	-5.7	-1.6%	12%	9.9%	27%	4%	-2.7
COCCCNC(=O)Cn1ncc2c(=O)oc3ccccc3c21	-0.7	-0.4%	11%	-2.2%	19%	0%	2.8
Cc1cc(C)nc(N/N=C/c2cn[nH]c2-c2ccc(F)cc2)n1	-5.1	-0.3%	-8%[15.4 µM]	0.8%	8%	6%	5.0
COc1cc(CN2CCN(C(=O)CC(C)C)CC2)cc(OC)c1O	5.4	-3.1%	-15%	·	?	3%	3.9
O=C(Nc1ccc(F)cc1)Nc1csc2ccccc12	0.6	·	-9%[15.4 µM]	?	?	?	-2.4
O=C(Sc1ccc(Cl)cc1)c1cccc(Cn2cc(C(F)(F)F)ccc2=O)c1	0.3	-1.5%	2%	2.4%	10%	-5%	9.4
CC(C)(C)NC(=O)C1N(c2cccnc2)C(=O)C2C(C(=O)Nc3ccccc3)C3(C)C=CC21O3 (configuration not stated)	-0.3	-2.4%	-2%	-0.2%	5%	9%	0.6
O=C(Cn1ccc(NC(=O)OCc2ccccc2)nc1=O)NCc1ccccn1	-1.5	1.1%	?	0.2%	·	4%	·
CCC(=O)c1ccc(OCC(=O)OCC(=O)NC2CCCCCC2)cc1	-1.8	·	-2%[15.4 µM]	0.5%	·	-7%	·
N#C/C(=C\c1cccc(O)c1)c1nc2ccccc2o1	-1.8	·	-6%[15.4 µM]	-0.7%	79µM*	0%	9.8
Cc1ccc(NC(=O)CSc2nc3ccccc3c(=O)n2CCCN2CCCCC2)cc1Cl	2.2	·	1%[15.4 µM]	-2.5%	-10%	8%	2.0
O=C(C[C@H]1C[C@H](C(=O)N2CCOCC2)[C@@]2(CCC3CCCC3)c3[nH]c4cc(-c5ccco5)ccc4c3CCN2C1=O)NCCN1CCOCC1	3.4	3.4%	·	3.0%	·	9%	·
O=S(=O)(c1ccc(OCC(O)CN2CCN(c3ccccc3Cl)CC2)cc1)N1CCOCC1 (configuration not stated)	?	1.9%	-17%	10%[38.3 µM]	-24%	-9%	3.0
O=c1[nH]c2ccccc2cc1CN(CC1CCCO1)S(=O)(=O)c1ccccc1 (configuration not stated)	5.1	·	3%	2.4%	14%	3%	-2.7
O=C(CN1CCS(=O)(=O)CC1)NNC(=O)C1CCCCC1	-1.6	-1.4%	-34%[inhibitor]	3.5%	14%	11%	2.3
Cc1ccc(C(=O)COC(=O)C2C3C=CC(C3)C2C(=O)OCC(=O)c2ccc(C)c(C)c2)cc1C (configuration not stated)	-2.6	-1.2%	-14%	0.1%	12%	16%	1.2
Cc1cc(NS(=O)(=O)c2ccc(NC(=O)c3cc4c(=O)n5ccccc5nc4s3)cc2)nc(C)n1	-1.2	4.1%	?	1.5%	29%	0%	8.8
CCc1ccc(CN(C)CC(=O)Nc2ccccc2[N+](=O)[O-])cc1	-3.9	1.1%	?	14%	5%	-4%	5.5
Cc1nc(C)n(C(C)CNC(=O)c2cccc(Br)c2)n1 (configuration not stated)	1.2	-0.2%	6%[15.4 µM]	0.7%	11%	-6%	0.1
S=C(Nc1ccc(Oc2ccccc2)cc1)NC1CCCC1	0.2	-21%	-34%[inhibitor]	1.2%	9%	8%	3.0
Cc1cccc(COCCN2CCN(S(=O)(=O)c3ccccc3)CCC2=O)c1	-1.1	0.5%	4%	-0.6%	11%	5%	4.8
CN(C)S(=O)(=O)c1cccc(C(=O)NCc2ccco2)c1	0.0	1.3%	4%	-0.9%	7%	2%	-1.1
O=C(Nc1ccc(NC(=O)c2ccco2)cc1)c1ccc2c(c1)OCO2	-2.3	5.4%	-7%	3.5%	-14%	-4%	2.0

Sorted by length of the SMILES (highest first): 14 of the compounds above
SMILES	D2 agonist	ClpP mod	gsp ag	PINK1 expr mod	Sfp inh	gsp antag	Menin MLL FP FL
O=C(NCc1ccccc1Br)c1cccc2c1C(=O)c1ccc(N3CCC(Cc4ccccc4)CC3)cc1S2(=O)=O	-6.5	-0.2%	-6%	-0.7%	·	0%	·
COc1cc(C2C(C(=O)c3ccc(C)o3)=C(O)C(=O)N2Cc2cccnc2)ccc1O (configuration not stated)	-3.6&0.9	-0.2%	0%	-0.4%	-8%&-14%	10%	13&6.7
Cc1ccc(NC(=O)CSc2nc3ccccc3c(=O)n2CCCN2CCCCC2)cc1Cl	2.2	·	1%[15.4 µM]	-2.5%	-10%	8%	2.0
O=C(NCc1ccc(F)cc1)C(=O)NCC1OCCN1S(=O)(=O)c1cccs1 (configuration not stated)	-5.7	-1.6%	12%	9.9%	27%	4%	-2.7
CON/C=C(\C=Nc1ccc(Cl)cc1Cl)c1ncc(C(F)(F)F)cc1Cl	-2.0	0.0%	4%	1.9%	9%	2%	1.1
CCOC(=O)c1c(C)oc2c1c(C=NCCC(=O)O)c(O)c1ccccc12	1.0	·	4%[15.4 µM]	-0.6%	-7%	-14%	?
CC(=O)NCc1ccc(S(=O)(=O)N/N=C/c2ccc(Br)cc2)cc1	-7.8	·	1%[15.4 µM]	2.0%	8%	-1%	5.4
O=C(Nc1ccc(NC(=O)c2ccco2)cc1)c1ccc2c(c1)OCO2	-2.3	5.4%	-7%	3.5%	-14%	-4%	2.0
Cc1cc(C)nc(N/N=C/c2cn[nH]c2-c2ccc(F)cc2)n1	-5.1	-0.3%	-8%[15.4 µM]	0.8%	8%	6%	5.0
CCC(=O)c1ccc(OCC(=O)OCC(=O)NC2CCCCCC2)cc1	-1.8	·	-2%[15.4 µM]	0.5%	·	-7%	·
Cc1ccc(OCC(=O)NCCNC(=O)COc2ccc(C)cc2)cc1	2.3	·	-16%[15.4 µM]	1.0%	5%	-10%	3.1
CCOC(=O)CSc1nnnn1-c1cc(OC)c(Cl)cc1OC	-1.4	-1.2%	12%	0.6%	11%	11%	1.4
O=C1N=C2SCCN2/C1=C\c1c(Cl)cccc1Cl	-5.8	0.7%	-17%	0.6%	-2%	?	3.9
O=C(Nc1ccc(F)cc1)Nc1csc2ccccc12	0.6	·	-9%[15.4 µM]	?	?	?	-2.4
